Compound activity from PubChem BioAssay.
Measles inh = inhibitors of measles virus growth in infected cells. infected Vero cells, GFP fluorescence, 64 h; hits give low values. z-score (concentration not given with the values). 33,000 compounds, 0.1% hits. AID 745;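 active means z-score under -3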;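 further: score is relative to mean and SD of the compound wells of a plate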
Numbers without * were called inactive. The list is partial; the hit share may differ from the screen's.

Measles inh	SMILES
-1.5	CCOc1ccc(C(=O)Nc2cc(-c3nc4ncccc4o3)ccc2C)cc1
-0.1	CCOc1ccc(C(=O)Nc2cc3nn(-c4ccc(OC)cc4)nc3cc2C)cc1[N+](=O)[O-]
-0.64	O=C(Nc1nnc(-c2ccc(Br)cc2)s1)c1ccco1
-1.6	CCn1c(C)nc2cc(S(=O)(=O)N3CCCC3)ccc21
0.3	CC1CCN(CCCNc2nc(=S)[nH]c3ccccc23)CC1
-1.4	Cc1cc2c(c(N3CCOCC3)n1)C(=O)OC2
0.29	Cc1cccc(N2CCN(C(=O)CCSCc3ccc(Cl)cc3)CC2)c1C
-0.29	Cc1ccc(NC(=O)C2C3C=CC4(O3)C2C(=O)N(Cc2ccccc2Cl)C4C(=O)NC2CCCCC2)cc1Cl (configuration not stated)
0.98	CCc1ccccc1NS(=O)(=O)c1ccc2[nH]cc(C(=O)NCc3cccnc3)c(=O)c2c1
0.19	COC(=O)c1ccc(C(=O)OC)c(NC(=O)c2cc3nc(-c4ccc5c(c4)OCO5)cc(C(F)(F)F)n3n2)c1
-0.08	CCOc1cccc(C(=O)Nc2ccc(Br)cn2)c1
0.94	Cn1c(=O)c2c(nc(NCCOCCO)n2Cc2ccc(Br)cc2)n(C)c1=O
0.64	CC(C)(C)CC(C)(C)NC(=O)c1cc2n(n1)C(C(F)(F)F)CC(c1ccc(Cl)cc1)N2 (configuration not stated)
-0.57	CN(CC(=O)NC1CCN(Cc2ccccc2)CC1)S(=O)(=O)c1ccc(Br)s1
0.61	Cc1cc(C(F)(F)F)c(C#N)c(SCC(=O)Nc2ccccc2)n1

4 of the compounds above, field by field.
Cc1ccc(NC(=O)C2C3C=CC4(O3)C2C(=O)N(Cc2ccccc2Cl)C4C(=O)NC2CCCCC2)cc1Cl (configuration not stated)
  Measles inh: -0.29

CCc1ccccc1NS(=O)(=O)c1ccc2[nH]cc(C(=O)NCc3cccnc3)c(=O)c2c1
  Measles inh: 0.98

COC(=O)c1ccc(C(=O)OC)c(NC(=O)c2cc3nc(-c4ccc5c(c4)OCO5)cc(C(F)(F)F)n3n2)c1
  Measles inh: 0.19

CCOc1cccc(C(=O)Nc2ccc(Br)cn2)c1
  Measles inh: -0.08

The list continues.
Measles inh	SMILES
-0.13	CCOC(=O)C1CCCN(C(=O)C2CCN(S(=O)(=O)c3cnc[nH]3)CC2)C1 (configuration not stated)
1.3	COc1ccccc1Nc1cc(C(=O)NC2CCCCC2)c2ccccc2n1
0.35	O=C(CCN1CCN(S(=O)(=O)c2ccc(Br)cc2)CC1)Nc1cccc(C(F)(F)F)c1
-0.19	Cc1ccc(CN2C(=O)CCC2C(=O)O)cc1 (configuration not stated)
-0.28	O=C(Nc1ccc(Br)c(C(F)(F)F)c1)c1ccc(F)cc1
0.94	Cc1cc(N2CCCCC2)nc2ccc(NC(=O)CCC(=O)NCC3CCCO3)cc12 (configuration not stated)
0.63	NC(=O)c1c(NC(=O)CSc2nc3ccccc3o2)sc2c1CCCC2
-1.1	O=C1C2CCCCC2C(=O)N1c1ccc(NCCc2c[nH]c3ccccc23)c([N+](=O)[O-])c1 (configuration not stated)
-0.58	COc1ccc(CNc2ccc(N3C(=O)C4CCCCC4C3=O)cc2[N+](=O)[O-])cc1 (configuration not stated)
-0.29	O=C(CCC1CCCC1)N1CCC(N2CCN(c3ccccc3)CC2)CC1
0.97	CCC1=NN(C(=O)c2cccnc2)C(O)(c2ccccc2)C1 (configuration not stated)
0.63	Cc1ccc(C(=O)NCCSc2c[nH]c3ccccc23)cc1
0.17	Cc1cccc(C)c1OCC(=O)NCCc1nc2ccccc2[nH]1
0.44	CCCSc1nccc(=O)[nH]1
-0.33	Cc1ccc(CNC(=O)c2ccc(CS(=O)(=O)Cc3ccccc3Cl)o2)cc1
0.46	Cc1c(Cl)cccc1NC(=O)c1cc(S(=O)(=O)N2CCC(C)CC2)ccc1F
-0.79	O=C(Nc1ccccc1Cl)c1scc2c1CCCC2
0.08	CN1C(=O)c2ccccc2C(C(=O)NCCCN2CCCCCC2)C1c1cn(C)c2ccccc12 (configuration not stated)
-0.17	O=C1C=C(c2cccs2)CC(c2ccccc2)C1n1nnc([N+](=O)[O-])n1 (configuration not stated)
-1.2	CCOc1ccc(C2C(C(=O)OC)=C(C)N=C3SCCC(=O)N32)cc1OCC (configuration not stated)
-0.11	Cc1cccc(N=Cc2c(O)c(C(=O)Nc3ccccc3C)cc3ccccc23)c1
-0.04	COc1cccc(CNc2sc3c(c2C(=O)Nc2ccc(OC)cc2OC)CCCC3)c1
0.53	COc1ccc(C2C(C(=O)N3CCOCC3)=C(C)Nc3nc4ccccc4n32)c(OC)c1OC (configuration not stated)
0.23	COc1ccccc1CNC(=O)CCC1Nc2c3ccccc3nc(=S)n2C1=O (configuration not stated)
-0.38	CCCCCOc1ccc(-c2ccc(C#N)cc2)cc1[N+](=O)[O-]
-0.09	Cc1[nH]c2ccccc2c1C1(O)C(=O)N(C)c2ccc(Br)cc21 (configuration not stated)
1.1	Cc1ccc(-n2c(SCC(=O)N3CCCCCC3)nc3c(c2=O)SCC3)cc1
-0.51	Cc1ccc(S(=O)(=O)Nc2cc(-c3nn(C)c(=O)c4ccccc34)ccc2N2CCCCC2)cc1
0.15	CC(Nc1cc(N2CCN(C)CC2)ccc1[N+](=O)[O-])C12CC3CC(CC(C3)C1)C2 (configuration not stated)
0.47	COc1ccc(N2CCN(C(=O)C(OC(C)=O)c3ccccc3)CC2)cc1 (configuration not stated)
0.93	Oc1ccc(Cn2c(-c3ccc(O)cc3)nc3ccccc32)cc1
-0.62	COc1ccccc1CN1C(=O)CN(C2CCCCC2)C(=O)C1c1cccc(Br)c1 (configuration not stated)
-0.7	COc1ccc(CNC(=O)CCCCn2c(=O)[nH]c3ccccc3c2=O)cc1
0.65	COc1cccc(-c2nc3sc4c(c3c(=O)n2CC(=O)C(C)(C)C)CCCC4)c1
-0.57	COc1cccc(C(=O)Oc2ccc3c4c(c(=O)oc3c2)CCCC4)c1
-0.25	CCOc1ccc(N2C(=S)NC3CC2(C)Oc2ccc(Cl)cc23)cc1 (configuration not stated)
-0.73	COc1ccc(Nc2cc(C)nc3c(C)cc(C)c([N+](=O)[O-])c23)cc1
1.7	CCSc1nc2c(c(=O)[nH]1)C(c1cccc(OC)c1)C1=C(CCCC1=O)N2 (configuration not stated)
-0.2	CCN(CC)C(=O)c1c[nH]c2ccc(S(=O)(=O)Nc3ccccc3F)cc2c1=O
-0.39	CC1=NN(C(=O)c2sc3cc(F)ccc3c2Cl)C(O)(C(F)F)C1 (configuration not stated)
-0.54	Cc1ccnn1-c1nc(-c2ccco2)cc(C(F)(F)F)n1
-0.26	O=C(CC1(O)C(=O)N(Cc2cccc3ccccc23)c2ccccc21)c1ccccc1 (configuration not stated)
0	NC(=O)c1ccc(Oc2ccc(C(N)=O)cc2)cc1
-0.44	COc1ccc(CNC(=O)CSCc2ccc(F)cc2)cc1
1.2	CCOC(=O)CSc1nc2ncccc2[nH]1
-0.1	COc1ccc(Cl)cc1NC(=O)c1cc2n(n1)C(C(F)(F)F)CC(c1ccco1)N2 (configuration not stated)
-0.55	COc1ccc(C2C(C(=O)Nc3ccc(OC)c(OC)c3)c3ccccc3C(=O)N2C2CCCCC2)cc1 (configuration not stated)
1.9	Cc1cccc(N2CCN(C(=O)CCCCCn3c(=S)[nH]c4cc5c(cc4c3=O)OCO5)CC2)c1C
0.02	CSc1nc2sc3c(c2c(=O)n1CCc1ccccc1)CCCC3
-0.24	Cc1ccccc1C(=O)Nc1ccc2nc(NC(=O)c3ccccc3C)sc2c1
1.8	Cc1cccc(N2CCN(C(=O)CCn3c(=S)[nH]c4cc5c(cc4c3=O)OCO5)CC2)c1C
0.39	COc1ccc(OC)c(S(=O)(=O)N2CCCc3ccccc32)c1
-0.73	CCCc1cc(=O)[nH]c(/N=C(\N)Nc2cc(Cl)ccc2OC)n1
-0.32	O=C(Nc1cc(C(F)(F)F)ccc1Cl)c1cc([N+](=O)[O-])nn1Cc1ccccc1
-0.28	O=C(CSc1nnc2c(n1)[nH]c1ccccc12)Nc1cccc2ccccc12
0.49	O=C(NCCn1cc(SCC(=O)N2CCCCCC2)c2ccccc21)c1ccc(F)cc1
-0.33	CC(C)(C)NC(=O)c1ccc2c(c1)C(=O)N(c1ccccc1-c1ccccc1)C2=O
0.17	CCOC(=O)C1=CN(c2cc(C)ccc2C)C=C(C(=O)OCC)C1c1cccc(C)c1
0.37	O=S(=O)(c1cccnc1)N1CCN(c2ccccc2Cl)CC1
0.22	Cc1nn(C)c(C)c1S(=O)(=O)NCc1ccccc1

Other compounds:
Measles inh	SMILES
-0.57	COc1cc2ccccc2cc1C(=O)Nc1cccc(C(F)(F)F)c1
-0.12	COc1cccc2c1OC1(C)CC2NC(=S)N1c1ccccc1C(F)(F)F (configuration not stated)
-0.28	COc1ccc(CN2CNc3c(c(=O)n(C)c(=O)n3C)C2)cc1
0.35	COc1ccc(C(=O)CSc2n[nH]c(C)n2)cc1
1	COc1ccc(Nc2ccc(N3C(=O)CC(C)C3=O)cc2[N+](=O)[O-])cc1OC (configuration not stated)
0.86	COc1ccc(-n2ccnc2SCC(=O)Nc2ccccc2C(F)(F)F)cc1
0.59	CCn1cc(C(=O)NCCCN2CCOCC2)c(=O)c2ccc(C)nc21
0.62	O=C1CC(C(=O)O)C2(CCCCC2)O1 (configuration not stated)
0.17	O=C(Cn1nc(-c2ccccc2)ccc1=O)NCc1cccs1
0.18	Cc1ccc(NC(=O)CC2Sc3ccccc3NC2=O)cc1Cl (configuration not stated)
1.9	CC(C)OC(=O)C(C)Nc1n[nH]c(=O)[nH]c1=O (configuration not stated)
0.04	CCOC(=O)c1ccc(NC(=O)Cn2nnc(-c3ccccc3C)n2)cc1
-0.13	CS(=O)(=O)N(CC(=O)NCc1ccco1)c1ccccc1Br
-0.37	CC(=O)C1C(c2cccc([N+](=O)[O-])c2)c2c(noc2C)CC1(C)O (configuration not stated)
0.73	CCn1c(=NC(=O)c2ccc(S(=O)(=O)N3CCOCC3)cc2)sc2cc(Cl)ccc21

Given field by field: part of the list above
O=C1CC(C(=O)O)C2(CCCCC2)O1 (configuration not stated)
  Measles inh = 0.62

CC(=O)C1C(c2cccc([N+](=O)[O-])c2)c2c(noc2C)CC1(C)O (configuration not stated)
  Measles inh = -0.37

Next records follow:
Measles inh	SMILES
-0.45	O=C(NCCc1ccccc1)C1CCN(S(=O)(=O)N2CCCCC2)CC1
-0.82	Cc1ccc2cc3cc(C(=O)N4CCC(N5CCCCC5)CC4)oc3nc2c1
7.5	N#Cc1c(C(F)(F)F)cc(-c2cccs2)nc1SCC(=O)C1CC1
1.5	CCCN(CCC)C(=O)c1ccccc1NC(=O)c1ccccc1Cl
-0.48	Cc1ccc(C)c(C2CC(=O)Nc3cc(C)c(C)cc32)c1 (configuration not stated)
-0.47	CC(C)c1ccc(NC(=O)c2ccc(F)c(S(=O)(=O)NC3CCCCCC3)c2)cc1
1.7	CCC(=O)Nc1ccc2nn(-c3ccc(C)c(Cl)c3)nc2c1
-0.72	O=C(c1ccc(=O)[nH]c1)N(Cc1ccco1)C1(C(=O)NC2CCCCC2)CCCCC1
0.2	CN(C)CCNC(=O)c1cccn2c(=O)c3c4c(sc3nc12)CCCC4
-0.33	COc1cccc(NS(=O)(=O)c2ccc(CC(C)C)cc2)c1
0.11	O=C(c1ccncc1)N1N=C(c2cccc(Br)c2)CC1(O)C(F)(F)F (configuration not stated)
-0.38	Cc1oc(C(C)(C)C)cc1C(=O)N1CCCC1C(=O)O (configuration not stated)
-0.26	O=C(C1CC1)N1CCc2cc(S(=O)(=O)N3CCN(Cc4ccccc4)CC3)ccc21
-1.3	COc1ccccc1-c1c(C(F)(F)F)oc2cc(OC(=O)c3ccco3)ccc2c1=O
-0.03	O=C(Nc1ccc(Cl)cc1)C1CCCN(S(=O)(=O)c2cccc3nonc23)C1 (configuration not stated)
-0.03	COc1cc(NC(=O)CCN2C(=O)c3cccc([N+](=O)[O-])c3C2=O)c(OC)cc1Cl
-1.2	O=C1CC(NCCCCO)C(=O)N1c1ccc(Cl)cc1 (configuration not stated)
-0.14	Cc1ccc([N+](=O)[O-])cc1S(=O)(=O)Nc1ccc2oc3c(c2c1)CC(C(C)(C)C)CC3 (configuration not stated)
2	CN1C(=O)C(C2C(=O)NC(=O)NC2=O)(C2C(=O)NC(=O)NC2=O)c2ccccc21
0.94	O=C(Nc1ccc(S(=O)(=O)Nc2ccc(F)cc2)cc1)c1ccccc1Br
-0.67	COc1ccc(C2=NN(C(C)=O)C(c3ccc([N+](=O)[O-])cc3)C2)cc1 (configuration not stated)
0.42	CCOc1ccc(-n2nc3ccc(NC(=O)COc4cc(C)ccc4C(C)C)cc3n2)cc1
-0.41	CC(C)COC(=O)c1cccc(NC(=O)c2ccccc2)c1
-1.1	Cn1c(SCC(=O)NCC2CCCO2)nnc1-c1c[nH]c2ccccc12 (configuration not stated)
0.38	C/C(O)=c1/c(=O)nc2cccc3c2=c1c1ccccc1c3=O
0.03	Cc1[nH]c2ccc(-c3nnc(SCC(=O)O)n3-c3ccc(Br)cc3)cc2c1C
0.54	CC(c1ccncc1)N(CCN(C)C)C(=O)Nc1ccccc1 (configuration not stated)
0.74	CCN(C(=O)c1c(-c2ccccc2)noc1C)C1CCCCC1
0.9	COC(=O)c1ccc(NC(=O)CCNS(=O)(=O)c2cccc3nsnc23)cc1
0.21	O=C(NCCN=C1NS(=O)(=O)c2ccccc21)c1ccc(F)cc1
-0.72	Cc1ccc(CNC(=O)CSc2nc(NC3CCCCC3)c3ccccc3n2)cc1

Reprinted at random: six entries already listed.
Measles inh	SMILES
0.54	CC(c1ccncc1)N(CCN(C)C)C(=O)Nc1ccccc1 (configuration not stated)
0.38	C/C(O)=c1/c(=O)nc2cccc3c2=c1c1ccccc1c3=O
0.03	Cc1[nH]c2ccc(-c3nnc(SCC(=O)O)n3-c3ccc(Br)cc3)cc2c1C
-0.14	Cc1ccc([N+](=O)[O-])cc1S(=O)(=O)Nc1ccc2oc3c(c2c1)CC(C(C)(C)C)CC3 (configuration not stated)
-0.03	COc1cc(NC(=O)CCN2C(=O)c3cccc([N+](=O)[O-])c3C2=O)c(OC)cc1Cl
2	CN1C(=O)C(C2C(=O)NC(=O)NC2=O)(C2C(=O)NC(=O)NC2=O)c2ccccc21
